PINK1 modulator: A Quantitative High throughput Screen to Identify Chemical Modulators of PINK1 Expression. PINK1 immunofluorescence, high-content cytometry, 24 h. Potency, µM (highest dose often 76.6 µM), for inactives: at the top dose activation (PINK1 increase), most hits filed as activators. actives 0.2% (n = 410,000); active = well fitted activation curve with a large enough effect; inconclusive = small, poorly fitted or top-dose-only effect; inactive = flat fitted curve, though single readings scatter; cell line not stated here;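 further: % of control where 0% means no effect; nearly all actives have a fitted effect of over 65% in size; a mitochondrial uncoupler was the plate control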
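A stable cell line was treated with compounds at 5 concentrations for 24 hours, with CCCP as control. PINK1 levels and mitochondrial localization were measured by immunofluorescence with mitochondrial, cell and nuclear markers after fixation, read by laser-scanning cytometry.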
ClpP mod: qHTS Assay for Activators of ClpP; ATP-dependent Clp protease proteolytic subunit (Bacillus subtilis (strain 168)), P80244; purified B. subtilis ClpP, FRET peptide cleavage, 20 min; Potency, µM (doses to about 57.5 µM), for inactives: at the top dose activity change, negative = active; actives 1.9% (n = 340,000); AID 651965, 2013; active = well fitted falling curve with a large enough effect; inconclusive = small, poorly fitted or top-dose-only effect; inactive = no such curve, though single readings can be large or run the other way; further: the source files actives as falling curves though it sought activators and does not explain the sign; nearly all actives have a fitted effect of over 65% in size; many hits overshoot -100%
Target sequence (P80244 whole entry, looked up): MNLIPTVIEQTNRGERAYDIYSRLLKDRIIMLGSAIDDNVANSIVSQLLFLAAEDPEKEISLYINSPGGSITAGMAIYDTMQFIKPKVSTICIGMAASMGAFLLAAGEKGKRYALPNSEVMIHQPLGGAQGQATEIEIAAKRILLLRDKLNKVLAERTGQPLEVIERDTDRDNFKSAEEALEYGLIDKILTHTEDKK
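Buffer: 100 mM Tris/HCl pH8, 100 mM KCl, 0.05% low protease BSA, 2.5% glycerol, 0.01% Tween-20. ClpP 10 microg/mL final; 20 min RT; delta FRET normalized to ADEP and DMSO controls.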
Starred values were filed as active, the others as inactive; ? = inconclusive; & = joins results of further samples. Potency means the concentration at half of the fitted maximal effect. An excerpt, so the mix of outcomes need not match the whole.

The opening 5 records, to show the layout:
Below each compound – PINK1 modulator | ClpP mod
> CC(C)CCNC(=O)c1cc(Sc2ccc(F)cc2F)nc2ccccc12
  2.1% | 22.4%
> Cc1ccc(OCCCn2c(-c3ccc(Cl)cc3)nc3ccccc3c2=O)c(C)c1
  -0.1% | -5.8%
> COc1ccc(CCn2c3c(c(=O)[nH]c2=O)C(NC(=O)c2ccc(C(C)(C)C)cc2)(C(F)(F)F)C(=O)N3)cc1OC (stereo not given)
  0.5% | -2.5%
> CCCCC(=O)Nc1ccc(OCc2cc(=O)n3c(C)csc3n2)cc1
  ? | -23.8%
> CCN(CC)C(=O)Cn1c(=O)n(CCCCCC(=O)NCc2ccc(C)cc2)c(=O)c2sccc21
  3.2% | 1.0%

This part in full, repeating the preview:
Below each compound – PINK1 modulator | ClpP mod
> CC(C)CCNC(=O)c1cc(Sc2ccc(F)cc2F)nc2ccccc12
  2.1% | 22.4%
> Cc1ccc(OCCCn2c(-c3ccc(Cl)cc3)nc3ccccc3c2=O)c(C)c1
  -0.1% | -5.8%
> COc1ccc(CCn2c3c(c(=O)[nH]c2=O)C(NC(=O)c2ccc(C(C)(C)C)cc2)(C(F)(F)F)C(=O)N3)cc1OC (stereo not given)
  0.5% | -2.5%
> CCCCC(=O)Nc1ccc(OCc2cc(=O)n3c(C)csc3n2)cc1
  ? | -23.8%
> CCN(CC)C(=O)Cn1c(=O)n(CCCCCC(=O)NCc2ccc(C)cc2)c(=O)c2sccc21
  3.2% | 1.0%
> Cc1ccc(S(=O)(=O)c2nnn3c2nc(N2CCOCC2)c2sccc23)cc1C
  0.7% | ?
> COc1ccc(N2CCN(S(=O)(=O)c3c(C)nc4sc(C)cn4c3=O)CC2)cc1
  0.1% | -1.8%
> O=C(CSc1nc2cc(C(=O)NC3CCCC3)ccc2c(=O)n1CC1CCCO1)c1cccc(Cl)c1 (stereo not given)
  0.3% | -5.5%
> Cc1ccccc1C(=O)Nc1nc2c(s1)CC(C(C)(C)C)CC2 (stereo not given)
  1.5% | 1.2%
> CCc1ccccc1NC(=O)CCCSc1nc(-c2ccco2)cc(C(F)(F)F)n1
  2.3% | -0.7%
> COc1ccc(OCC(=O)Nc2ccc(C(=O)OCc3cc(=O)n4nc(C)sc4n3)cc2)cc1
  3.8% | 4.6%
> Cc1ccc(S(=O)(=O)Nc2cc3c(C(=O)OCc4ccccc4)c(C)oc3c3ccccc23)cc1
  ? | -1.9%
> O=C(COc1ccc(Cl)cc1Cl)Nc1cccc2cccnc12
  2.3% | -3.4%
> CC(C)(C)c1ccc(Oc2nc3ccccn3c(=O)c2/C=C(\C#N)c2nc3ccccc3[nH]2)cc1
  28.2µM* | -4.6%
> Cc1ccccc1NC(=O)CCn1nc(-c2ccccc2)c2ccccc2c1=O
  1.5% | -0.2%
> COc1ccccc1C(C)NCC(=O)c1c(C)[nH]c2ccccc12 (stereo not given)
  -0.2% | -1.8%
> CCc1ccc(C2c3c(oc4ccc(F)cc4c3=O)C(=O)N2CCc2ccc(OC)cc2)cc1 (stereo not given)
  -2.0% | 1.9%
> Cc1nn2c(-c3cccc(NC(=O)c4ccc(Cl)cc4)c3)nnc2c2ccccc12
  -0.6% | -15.2%
> CCc1ccccc1NC(=O)C(C)n1nc(-c2ccc(C)c(C)c2)ccc1=O (stereo not given)
  1.8% | -9.5%
> Cc1ccc(CNc2nc3c(S(=O)(=O)c4ccccc4)nnn3c3ccsc23)cc1
  0.7% | -1.8%
> COc1ccc(NC(=O)Cn2ncc3c2-c2ccccc2OC3)cc1Cl
  0.8% | 1.5%
> Cc1csc2nc(COC(=O)c3cccc(NC(=O)COc4ccccc4Cl)c3)cc(=O)n12
  1.4% | 0.9%
> COc1ccc(C(CNC(=O)COc2ccc(C)cc2)N2CCCCC2)cc1 (stereo not given)
  -1.4% | -1.0%
> Cn1c(SCc2cc(=O)c3cc(Cl)ccc3[nH]2)nnc1-c1ccccc1
  1.9% | -2.9%
> Cc1ccc(CNc2ncnc3c2c(-c2ccccc2)cn3-c2cccc(Cl)c2)cc1
  1.4% | ?
> COC(=O)c1ccccc1NC(=O)Cn1c(=O)n(-c2cccc(C(F)(F)F)c2)c(=O)c2c(C)c(C)sc21
  -0.2% | -1.2%
> O=C(CSc1n[nH]c(-c2ccc(F)cc2)n1)NCCc1ccccc1
  1.4% | -1.4%
> CCCCN(CC)C(=O)Nc1ccc2c(c1)N(C)C(=O)c1ccccc1S2
  2.4% | ?
> COc1ccccc1N1CCN(c2cc(C)nc3nc(-c4ccc(Cl)cc4)nn23)CC1
  0.3% | 1.0%
> N#C/C(=C\c1cc(Br)c(O)c(Br)c1)c1nc2ccccc2c(=O)[nH]1
  -0.4% | 25.1µM*
> CCCCN(CC)C(=O)CSc1nc2n[nH]c(C)c2c(=N)n1-c1ccc(CC)cc1
  1.6% | ?
> O=C1NC[C@H](CCCCN2C[C@H](Cc3ccccc3)N(Cc3ccccc3)C(=O)C2=O)N(CCc2ccccc2)C1=O
  1.2% | -0.4%
> COc1cc(OC)c(NC(=O)CCc2c(C)nc3c4c(C)cc(C)nc4nn3c2C)cc1Cl
  8.9% | -28.8%
> COc1ccccc1N1CCN(S(=O)(=O)c2ccc3c(c2)CCCN3C(C)=O)CC1
  -1.8% | -3.6%
> C[n+]1ccnc2cc(Cl)ccc21
  -1.0% | -7.4%
> CCOc1ccc(S(=O)(=O)N(CC(=O)NCCSc2ccccc2)c2ccccc2)cc1
  1.4% | -1.0%
> COCCN(CCOC)c1ncnc2c1c(-c1ccccc1)cn2-c1ccc(C)c(Cl)c1
  1.2% | 28.2µM*
> O=C(COC(=O)c1cccc(NC(=O)c2ccc(Br)cc2)c1)c1ccc(Cl)cc1
  5.0% | 2.0%
> COc1ccc(OC)c(CCNC(=O)Cn2nc(C)n3c(cc4sccc43)c2=O)c1
  -0.7% | -3.2%
> COc1ccc(C(=O)CSc2nc3cc(C(=O)NC4CCCC4)ccc3c(=O)n2CC2CCCO2)cc1 (stereo not given)
  0.1% | -2.9%
> Cc1ccccc1CNC(=O)c1cnc2sc(N3CCC(C)CC3)nn2c1=O
  1.3% | 1.3%
> Cc1ccc(C)c(NC(=O)Cn2c(=O)n(Cc3ccc4c(c3)OCO4)c(=O)c3ccccc32)c1
  0.1% | -4.4%
> CCC(=O)N1c2ccc(S(=O)(=O)CCC(=O)NCc3ccc(OC)cc3)cc2CC1C (stereo not given)
  0.7% | -3.6%
> O=C(Cn1c(-c2cccs2)cc2cc(F)ccc21)N1CCN(c2cccc(Cl)c2)CC1
  -0.7% | 28.2µM*
> Cc1ccc2oc(=O)n(CCNC(=O)Nc3ccc(C)c(F)c3)c2c1
  1.6% | -0.1%
> COc1cccc(-c2oc3ccc(C)cc3c(=O)c2O)c1
  1.3% | 4.4%
> COc1cccc(CNC(=O)C2CCN(C(=O)N3CCOc4ccc(Cl)cc43)CC2)c1OC
  -1.4% | -4.2%
> CCCS(=O)(=O)N1CC(=O)N(c2ccccc2C)C(C)(C(=O)NC2CCCC2)C1 (stereo not given)
  -0.5% | -3.3%
> S=C(NCCCc1cnc[nH]1)NCCCN(CCc1ccccc1)c1ccc(Br)cn1
  -0.1%&0.3% | -5.0%&-2.6%
> CCN(Cc1ccccc1)S(=O)(=O)c1ccc2c(c1)CC(C)N2C(=O)C1CCC1 (stereo not given)
  2.3% | -1.5%

(continued)
Below each compound – PINK1 modulator | ClpP mod
> N#Cc1ccc[n+](CC(=O)c2ccc(O)c(O)c2)c1
  0.3% | -0.3%
> COCCNc1nc(NCc2cccc(Cl)c2)c2cnn(C)c2n1
  2.5% | -24.4%
> CCN(CC)S(=O)(=O)c1ccc2c(c1)N(CC(=O)Nc1cccc(C)c1C)C(=O)C1CCCN21 (stereo not given)
  1.2% | -3.7%
> CCN1CCC(N(Cc2cccc(OC)c2)C(=O)Nc2cccc(C)c2C)CC1
  -0.5% | -1.2%
> CCOc1ccccc1N1CC(c2nc3ccccc3n2CCCCOc2ccccc2)CC1=O (stereo not given)
  6.5% | 5.8%
> CCN1CCN(C(=O)c2ccc3c(c2)N(Cc2ccccc2F)C(=O)c2ccccc2S3=O)CC1 (stereo not given)
  2.1% | 0.8%
> O=c1c2c3c(sc2n(Cc2ccc(F)cc2Cl)c(=O)n1-c1ccc(Cl)cc1)CCC3
  0.1% | 1.6%
> CCn1c(=O)cc(SCC(=O)NCc2ccc(OC)cc2OC)c2ccccc21
  0.1% | -6.5%
> Cc1nn(C(C)C(=O)Nc2cccc(F)c2)c(=O)c2c1sc1ccccc12 (stereo not given)
  0.1% | -14.8%
> O=C(Nc1noc2ccccc12)c1ccc(F)cc1
  -0.2% | 1.4%
> CCC(=O)N1CCc2cc(CNC(=O)c3ccc(C#N)cc3)ccc21
  -1.0% | -0.1%
> CCCCCCCCN1C(=O)[C@H](CC(=O)N2CCSCC2)C[C@@]2(C(=O)OC)CCCCC=C12
  7.5% | 3.3%
> Cc1c(NC(=O)c2sc3c([N+](=O)[O-])cccc3c2Cl)cccc1-c1nc2ccccc2o1
  -0.3% | -1.0%
> COc1cc(OC)c(NS(=O)(=O)c2cc(-c3cnc(C4CC4)o3)ccc2C)cc1Cl
  10.2% | -1.7%
> CCC(=O)N1CCc2cc(CNS(=O)(=O)c3ccccc3F)ccc21
  0.8% | 1.9%
> Cc1noc(-c2ccc(NC(C)c3ccccc3)c([N+](=O)[O-])c2)n1 (stereo not given)
  1.7% | 0.0%
> Cc1ccc(C)c(N2CCN(S(=O)(=O)c3cnc(N)nc3)CC2)c1
  -0.7% | 1.5%
> COc1cc(OC)c(/C=C/c2ccc3ccccc3[n+]2[O-])c(OC)c1
  1.3% | -2.6%
> O=C(COc1ccccc1F)Nc1ccccc1C(=O)OCc1cc(=O)n2nc(C3CC3)sc2n1
  -0.5% | 0.5%
> Cc1cc(C)cc(Oc2nc3c(C)cccn3c(=O)c2/C=C(\C#N)c2nc3ccccc3[nH]2)c1
  ? | -2.9%
> Cc1nn(-c2ccccc2)c2nc(C3CC3)cc(C(=O)Nc3ccc(F)cc3)c12
  -0.5% | 4.2%
> Cc1ccc(Cn2c(CO)cnc2SCC(=O)NCc2ccccc2Cl)cc1
  0.1% | 3.0%
> Cc1cc(C)cc(Nc2cc(C(=O)NC3CCC(C)CC3)c3ccccc3n2)c1 (stereo not given)
  1.5% | -17.1%
> Cc1cc(N(C)C)ccc1/C=C/c1ccnc2ccccc12
  2.0% | -1.0%
> COc1ccc(-c2cc3nc(-c4ccccc4)cc(C(F)(F)F)n3n2)cc1
  0.3% | -2.4%
> CC(C)CN(CCNC(=O)c1cn(C)c2ccc(S(=O)(=O)N3CCCCCC3)cc2c1=O)CC(C)C
  1.1% | 0.7%
> CCn1c(=N)c(C(=O)NC2CCCCC2)cc2c(=O)n3cc(C)ccc3nc21
  3.2% | 3.8%
> O=C1CC(c2ccccc2)Cc2[nH]c(=O)c(C(=O)Nc3ccc(F)cc3)cc21 (stereo not given)
  3.5% | -12.6%
> CCOc1ccc(CCN2C(=O)C(=O)N([C@@H](Cc3ccccc3)CN3CCC[C@H]3CN3C(=O)C(=O)NC[C@@H]3Cc3ccccc3)C[C@@H]2CC(C)C)cc1
  0.2% | -1.5%
> CC(CCc1ccccc1)NC(=O)Cn1ncc2c3ccccc3n(Cc3ccccc3F)c2c1=O (stereo not given)
  0.8% | -2.8%
> CCOc1ccc(C(=O)NCCc2sc(-c3cccc(F)c3)nc2C)cc1OCC
  4.7% | 3.9%
> CCn1c(=O)c2sccc2n2c(CCC(=O)Nc3ccc(OC)c(Cl)c3)nnc12
  3.2% | -0.5%
> Cc1ccccc1/C=C(\C#N)c1nc(-c2ccc(Cl)cc2)cs1
  0.8% | -3.1%
> CC(=O)c1ccc(N2CCN(C(=O)c3ccc(Cn4c(=O)[nH]c5ccccc5c4=O)cc3)CC2)cc1
  7.7% | ?
> CCCOc1ccc(-c2cccc(NS(=O)(=O)c3ccccc3)c2)nn1
  0.8% | -0.1%
> O=C(C1CCN(c2nc3ccccc3[nH]2)CC1)N1CCN(c2cccc(Cl)c2)CC1
  0.3% | 0.2%
> CCN1CCc2c(sc(NC(=O)c3ccc(S(=O)(=O)N(C)C4CCCCC4)cc3)c2C(N)=O)C1
  -4.6% | 0.9%
> COc1ccc(-c2onc(C)c2C)cc1S(=O)(=O)NC1CCCCC1
  0.6% | -6.4%
> Cc1ccc(C)c(NC(=O)Cc2coc3cc(C)cc(C)c23)c1
  -1.3% | -3.2%
> CC(=O)N1CCc2cc(S(=O)(=O)CCC(=O)N3CCN(c4cccc(C)c4C)CC3)ccc21
  2.1% | 1.9%
> Cc1cc(NC(=O)N2CC=C(c3c[nH]c4ccccc34)CC2)ccc1Br
  1.4% | -14.9%
> CC(C)OCCCNC(=O)CN1C(=O)COc2ccc(S(=O)(=O)N3CCOCC3)cc21
  1.1% | -2.0%
> CC(NC(=O)Nc1ccccc1C(F)(F)F)c1c(-n2cccc2)sc2c1CCCC2 (stereo not given)
  0.9% | -0.2%
> Cc1ccc(-n2ncc(C(=O)N3CCN(c4ncccn4)CC3)c2C2CCN(C(=O)OC(C)(C)C)CC2)cc1
  -0.5% | -10.1%
> O=C(COc1ccccc1F)Nc1ccccc1OCc1cc(=O)n2ccccc2n1
  -3.2% | -0.2%
